MT1-MMP act inh: blocks activation of human MT1-MMP; HT1080 RFP-PRO-GFP cells, GFP/RFP ratio fluorescence, overnight; percent of plate control window, DMSO zero; hit rate 0.061% among 360,000; GFP/RFP ratio change, % at 20 µM; P50281;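 active means GFP/RFP ratio change of at least 30% with cell ATP level not reduced by more than half and red fluorescence within 50% of control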; further: strong numbers were not always called active
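Assay system: HT1080 RFP-PRO-GFP cells. Benchmarks: DMSO vehicle wells and RFP-L50D-GFP reporter cell wells. Times: overnight cell settling, then overnight compound exposure, 37 °C, 5% CO2. Compound: 20 µM single dose, 1% DMSO. Read-out basis: GFP/RFP fluorescence ratio.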
CSC inhib: blocks cancer stem cells; cancer stem cell-like cells viability, luminescence; inhibition, % at 7.5 µM; hit rate 1.1% among 300,000;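 active means mean at 75% or more and at least half the replicates too; inconclusive means mean and replicates disagree; tested in HMLE shEcad cells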;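 further: 0% = median of negative and 100% = median of positive control wells; the first replicate is given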
eIF4H FP inh: inhibitors of RNA binding by human eIF4H; eIF4H fluorescence polarization binding assay; AID 2012; inhibition, % at 35 µM; hit rate 0.94% among 290,000; Q15056;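 active means 50% or more with normal probe brightness, or confirmed in later tests; inconclusive means above 50% with abnormal brightness, or retests that disagree; inactive means below 50% or failed in later tests; about a fifth of its hits are not listed in these tables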;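 further: calls also rest on retests at 20 µM and on dose response follow-up; 0% = protein and probe with vehicle and 100% = probe without protein; strong numbers were not always called active; many hits fall short of the cut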
Rce1 inh: yeast Ras-converting enzyme inhibition | Q03530 | yeast membranes, quenched prenylated peptide cleavage fluorescence | calls only | hit rate 0.27% among 290,000 | AID 2563;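 active means fall in fluorescence gain of 50% or more versus controls, with final raw signal at or below 3038400; inconclusive means same 50% fall but final raw signal above 3038400; inactive means fall in fluorescence gain under 50%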;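 further: plate controls were neutral control wells for no effect and wells lacking membranes for full effect; tested at 10 µM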
PABP FP inh: blocks human PABP binding to poly(A) RNA; hit rate 1% among 290,000; inhibition, % at 35 µM; fluorescence polarization; P11940;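 active means 50% or more with normal probe brightness, or confirmed in later tests; inconclusive means above 50% with abnormal brightness, or retests that disagree; inactive means below 50% or failed in later tests; about a fifth of its hits are not listed in these tables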;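 further: calls also rest on retests at 20 µM and on dose response follow-up; controls were probe without protein and protein plus probe with vehicle; some compounds called inactive have numbers as strong as hits; many hits fall short of the cut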
Target sequence (P11940 whole entry, looked up): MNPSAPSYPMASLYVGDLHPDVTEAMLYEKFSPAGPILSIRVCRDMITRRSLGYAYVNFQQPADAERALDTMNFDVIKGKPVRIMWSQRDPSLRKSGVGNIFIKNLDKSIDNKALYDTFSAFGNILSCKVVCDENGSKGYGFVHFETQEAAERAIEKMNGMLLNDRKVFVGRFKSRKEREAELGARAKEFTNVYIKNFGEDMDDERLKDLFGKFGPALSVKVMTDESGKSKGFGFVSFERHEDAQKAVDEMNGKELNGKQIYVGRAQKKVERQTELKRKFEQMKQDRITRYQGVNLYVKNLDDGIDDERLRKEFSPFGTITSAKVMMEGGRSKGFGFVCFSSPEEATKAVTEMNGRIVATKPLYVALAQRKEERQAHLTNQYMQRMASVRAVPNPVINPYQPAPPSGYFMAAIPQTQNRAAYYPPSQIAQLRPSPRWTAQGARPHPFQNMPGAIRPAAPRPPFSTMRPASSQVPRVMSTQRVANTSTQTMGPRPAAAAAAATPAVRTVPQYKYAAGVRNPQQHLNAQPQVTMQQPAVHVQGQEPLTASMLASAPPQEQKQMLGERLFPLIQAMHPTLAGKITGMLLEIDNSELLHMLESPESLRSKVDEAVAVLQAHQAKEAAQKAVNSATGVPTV
Yeast UUG start: alters start codon recognition fidelity in yeast. activity score, % at 18.7 µM. AID 602363. S. cerevisiae UUG-firefly luciferase reporter, luminescence/redox ratio. hit rate 0.13% among 350,000;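 active means replicate mean at a twofold rise or more, about +100% in these data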;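 further: firefly luciferase made from a UUG start codon reports start codon fidelity; reporter light over untreated wells divided by growth signal over untreated wells; some hits fall short of that in this replicate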
Env fusion inh: blocks HIV Env-driven cell-cell fusion; hit rate 1.1% among 360,000; inhibition, % at 12.3 µM; HeLa-JRFL Env/CEM21 cell fusion, luciferase;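 active means mean replicate inhibition score of at least 50 and every replicate individually at or above 50; inconclusive means only one of the two criteria met; inactive means mean below 50 and not all replicates reaching 50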;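 further: 0% = plate neutral controls and 100% = maraviroc near 300 nM; one replicate is shown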
eIF4H FP inh retest: recorded beside eIF4H FP inh, whose call it bears; inhibition, %; compound at 20 µM; confirmation average;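 mean of two retest wells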
PABP FP inh retest: second read-out of PABP FP inh, no call of its own (marks repeat the call); inhibition, %; compound at 20 µM; confirmation repeats;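 mean of two retest wells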
MT1-MMP act inh RFP: also measured in MT1-MMP act inh; calls as there; RFP signal change, %; measured here: RFP expression control read;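 0 = vehicle wells; hits needed this value within 50% of zero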
* hit, by the source's call; i = inactive; ? = inconclusive; / = no result given; + = active, no number.

SMILES | MT1-MMP act inh | MT1-MMP act inh RFP | CSC inhib | eIF4H FP inh | Rce1 inh | PABP FP inh | Yeast UUG start | Env fusion inh | others
CC(C)=CCC/C(C)=C/CNC(=O)CC1C[C@H](C(=O)N(C(C)C)C(C)C)[C@@]2(C)c3[nH]c4ccccc4c3CCN2C1=O (some centres undefined) | -26 | -28 | / | / | / | / | 12 | -26
CCOc1ccc(CNC(=O)CCC(=O)N2Cc3ccccc3Oc3ncccc32)cc1 | -2 | 7 | -11 | -5 | i | 0 | 5 | -2
Cn1cnc(S(=O)(=O)N2CCCCC2c2cc(C(=O)Nc3ccccc3Cl)no2)c1 (centres undefined) | 4 | 2 | / | / | / | / | -13 | -1
COc1cccc(-n2nnnc2SCC(=O)NCc2ccc3c(c2)OCO3)c1 | -4 | -2 | 8 | -11 | i | -8 | -4 | /
CSc1ccc(/C=N/Nc2nc(C)cc(C)n2)cc1 | 0 | -1 | 13 | 0 | i | 35 | -34 | -16
COc1ccc(CNC(=O)c2ccccc2NS(C)(=O)=O)cc1 | -6 | 2 | -6 | -4 | + | -4 | / | 9
O=C(Nc1ccccc1Br)c1ccccc1-c1ccccc1 | -9 | -11 | 6 | 2 | i | -3 | / | 2
N#Cc1c(C(F)(F)F)cc(-c2ccccc2)[nH]c1=O | 1 | 6 | 15 | 2 | i | 5 | -9 | -43
CCNc1nnc(CSc2nc3ccccc3s2)s1 | 3 | 0 | -3 | -7 | i | -4 | -13 | -43
COc1ccc(OC)c(-n2c(SCC(C)=O)nnc2-c2cccc(S(=O)(=O)N(C)C)c2)c1 | / | / | -6 | 2 | i | 5 | / | -41
O=C(c1ccccc1)c1cc([N+](=O)[O-])ccc1N1CCOCC1 | 14 | 0 | / | -16 | i | -7 | -38 | 13
C=CCn1c(=O)c2ccccc2n2c(SCC(=O)Nc3cc(C)on3)nnc12 | 1 | 2 | -7 | 1 | i | -13 | 15 | -100
CC(=O)c1nn(-c2cccc(Br)c2)cc1C(=O)c1ccc2ccccc2c1 | 3 | -4 | / | 4 | i | 2 | 0 | -42
COc1cccc(-c2nc(-c3ccc(NC(=O)c4cccnc4)cc3)no2)c1 | 2 | -6 | 18 | -21 | i | -25 | / | /
CC1Oc2ccccc2N(CC(=O)Nc2ccc(F)cc2)C1=O (centres undefined) | 4 | 3 | -15 | 2 | i | -1 | 0 | -1
C=CCNS(=O)(=O)c1nc(C)c(Cl)c(C)c1C#N | 1 | 2 | -7 | -15 | i | -4 | -13 | -38
O=[N+]([O-])c1ccc(/C=N/Nc2nc(N3CCCC3)nc(N3CCCC3)n2)o1 | -2 | 2 | -11 | 127 | i | 120 | -15 | / | eIF4H FP inh retest=6;PABP FP inh retest=13
O=C(C1CC(=O)N(c2ccc(Cl)cc2)C1)N1CCOCC1 (centres undefined) | 2 | 2 | / | -2 | i | 1 | -2 | -3
Cc1cc(C)n2c3c(c(C#N)c2n1)CCCC3 | -11 | -3 | -14 | -8 | i | 5 | -12 | -24
Cc1ccccc1-c1nnc2c3ccccc3c(C)nn12 | 2 | 1 | -28 | -8 | i | ? | / | /
Cn1cnc([N+](=O)[O-])c1Sc1nnc(-c2cccnc2)n1C | 6 | 6 | -2 | 2 | i | 15 | -15 | 5
Cc1cccc(NS(=O)(=O)c2nnc(NC(=O)C3CCCCC3)s2)c1 | 2 | -12 | 10 | -3 | i | -1 | -12 | 4
CCc1ccc(N(C(=O)c2snc(C(N)=O)c2N)C(C(=O)NCC2CCCO2)c2cccs2)cc1 (centres undefined) | 1 | 1 | / | -7 | i | -3 | / | 26
O=C(Cc1ccccc1)Nc1ccc(N2CCOCC2)cc1N1CCOCC1 | -1 | -3 | -19 | -5 | i | -6 | -11 | -15
COc1ccc(/C=N/Nc2ncc(-c3ccccc3)cn2)c(OC)c1 | 3 | -1 | -5 | -6 | i | -2 | -25 | /
Following part
SMILES | MT1-MMP act inh | MT1-MMP act inh RFP | CSC inhib | eIF4H FP inh | Rce1 inh | PABP FP inh | Yeast UUG start | Env fusion inh | others
Cn1c(SCC(=O)Nc2ccc(F)cc2)nc2c([nH]c3ccccc32)c1=O | 2 | 0 | 15 | -2 | i | 6 | -18 | -35
Cc1nc2scc(C)n2c(=O)c1S(=O)(=O)NCc1ccccc1 | -5 | -1 | -10 | -7 | i | -14 | -21 | 8
COC(=O)c1cc(-c2ccccc2)sc1NC(=O)CN1C(=O)c2ccccc2C1=O | 6 | -6 | -9 | -8 | i | -6 | -18 | -13
O=C(N/N=C1/CC2CCC1C2)c1cc2ccccc2cc1O (centres undefined) | 4 | -4 | 9 | 3 | i | 8 | -9 | 6
COc1ccc(NS(=O)(=O)c2ccc(NC(=O)C3CC3)cc2)cc1 | 3 | -11 | -14 | -2 | i | -3 | -5 | 5
Cc1ccc(Oc2ncc(-c3ccc(Cl)cc3)cn2)cc1 | -1 | -1 | 1 | -8 | i | -3 | -9 | /
CCNC(=O)C(=O)Nc1ccc(OC)c(Cl)c1 | 3 | 8 | 1 | -9 | i | -2 | / | -19
Cc1cccc(C(=O)NNC(=O)c2ccccc2-n2cccc2)c1 | -6 | -3 | -9 | -3 | i | 13 | / | -8
Cc1ccc(S(=O)(=O)N2[C@@H](c3ccc(Cl)cc3)C(C(=O)O)=CC[C@H]2c2ccc(C(C)C)cc2)cc1 | 3 | 4 | 23 | / | / | / | -5 | 15
COc1ccccc1NC(=S)N1CCn2cccc2C1c1cccnc1 (centres undefined) | 1 | 1 | -6 | 7 | i | -13 | / | -7
O=C(CCCn1c(=S)[nH]c2cc3c(cc2c1=O)OCO3)N1CCN(c2ccc(Cl)cc2)CC1 | -2 | -20 | 30 | -14 | i | 1 | / | 99*
O=Cc1ccccc1OCCCOc1cccc2cccnc12 | -3 | -2 | 59 | 4 | i | 13 | 6 | -29
COCCNC(=O)CSCc1cc(C)cc(C)c1 | 3 | 5 | -4 | -11 | i | -10 | / | -3
O=C(C[C@@H]1C/C=C\C[C@H](Cc2ccc(F)cc2)C(=O)OC[C@H]2CCCN2C1=O)NCCO | -1 | 3 | / | / | / | / | -19 | -334
COCCNC(=O)C1CC(c2cccc([N+](=O)[O-])c2)=NO1 (centres undefined) | 1 | 0 | -15 | 96 | i | 0 | -9 | 2 | eIF4H FP inh retest=-3;PABP FP inh retest=4
CC1(C(=O)Nc2ccc3nc[nH]c3c2)CCN1C(=O)Cc1ccc(-c2ccccc2)cc1 (centres undefined) | 2 | -19 | / | / | / | / | -17 | 47
CN(C(=O)COC(=O)Cc1c[nH]c2ccccc12)c1c(N)n(Cc2ccccc2)c(=O)[nH]c1=O | -3 | 3 | 12 | / | / | / | -13 | /
O=C(c1ccc(S(=O)(=O)N2CCCC2)cc1)N1CCN(Cc2ccc3c(c2)OCO3)CC1 | 4 | -3 | 21 | -20 | i | 5 | 18 | /
CN(C)S(=O)(=O)c1ccc(Cl)c(NC(=O)CNC2(C)CCS(=O)(=O)C2)c1 (centres undefined) | 0 | 1 | -6 | / | / | / | -16 | -23
O=C(O)c1cc([N+](=O)[O-])cc2ccccc12 | -2 | 2 | / | / | / | / | -12 | 13
COc1ccc(C(O)c2nc(-c3ccc(OC)nc3)cs2)cc1 (centres undefined) | 3 | 0 | / | / | / | / | -17 | 0
O=C(O)c1cc(S(=O)(=O)NCCOc2ccccc2)ccc1Cl | -2 | 1 | 12 | / | / | / | -2 | /
COC(=O)c1ccccc1NC(=O)N1CCN(S(=O)(=O)c2ccc(Cl)cc2)CC1 | 3 | -3 | 4 | -2 | i | -1 | -8 | -40
COc1ccc(CNc2nc3c(c(=O)n(Cc4ccc(F)cc4)c(=O)n3C)n2C)cc1 | -5 | -10 | 0 | -15 | i | -16 | -15 | 35
O=C(Nc1cc(C(F)(F)F)ccc1Cl)c1ccc(NC(=O)C(F)(F)F)cc1 | -4 | -3 | 2 | 6 | i | 4 | / | 4

Ordered by SMILES length (rising): three of the compounds above.
SMILES | MT1-MMP act inh | MT1-MMP act inh RFP | CSC inhib | eIF4H FP inh | Rce1 inh | PABP FP inh | Yeast UUG start | Env fusion inh | others
O=Cc1ccccc1OCCCOc1cccc2cccnc12 | -3 | -2 | 59 | 4 | i | 13 | 6 | -29
COCCNC(=O)C1CC(c2cccc([N+](=O)[O-])c2)=NO1 (centres undefined) | 1 | 0 | -15 | 96 | i | 0 | -9 | 2 | eIF4H FP inh retest=-3;PABP FP inh retest=4
O=C(C[C@@H]1C/C=C\C[C@H](Cc2ccc(F)cc2)C(=O)OC[C@H]2CCCN2C1=O)NCCO | -1 | 3 | / | / | / | / | -19 | -334

(further entries)
SMILES | MT1-MMP act inh | MT1-MMP act inh RFP | CSC inhib | eIF4H FP inh | Rce1 inh | PABP FP inh | Yeast UUG start | Env fusion inh | others
O=C1CSC(=S)N1c1ccc(O)cc1 | 16 | 17 | 27 | -6 | i | -1 | -10 | 16
O=C(NCC(=O)N1CC(O)CC1C(=O)N1CC(O)CC1C(=O)OCc1ccccc1)OCc1ccccc1 (centres undefined) | 2 | 5 | 6 | -3 | i | -6 | / | 1
COc1ccc(C(=O)Nc2cc(C(=O)c3ccccc3)c(C)oc2=O)cc1 | 2 | 0 | -2 | -19 | i | 6 | -17 | -73
O=[N+]([O-])c1cc(-c2csc(NC(CO)c3nc4ccccc4n3CCOCCO)n2)ccc1Cl (centres undefined) | -2 | -4 | -13 | / | i | / | -21 | -74
CC(=O)c1cccc(OCc2cc(C(=O)N(C)CCC3CCOCC3)no2)c1 | 2 | -5 | -12 | -11 | i | 1 | -11 | -39
COc1ccc(NC(=O)CN2C(=O)c3ccccc3S2(=O)=O)cc1OC | -1 | -1 | -4 | 6 | i | -5 | -16 | 6
CC(=O)c1ccc(N(C(=O)CNC(=O)c2cccs2)C(C(=O)NCC2CCCO2)c2ccccc2)cc1 (centres undefined) | 2 | 3 | -7 | -11 | i | -6 | 7 | -5
COC(=O)c1cc(S(=O)(=O)NCc2ccccc2)c[nH]1 | -1 | 4 | -6 | -7 | i | -7 | -23 | 20
CC1CCc2cc(F)ccc2N1C(=O)C1(C)CC1(Cl)Cl (centres undefined) | -4 | -5 | / | -9 | i | 8 | -8 | /

Grouped by structure: those above with an aryl thioether with sulfur outside any ring
SMILES | MT1-MMP act inh | MT1-MMP act inh RFP | CSC inhib | eIF4H FP inh | Rce1 inh | PABP FP inh | Yeast UUG start | Env fusion inh | others
COc1cccc(-n2nnnc2SCC(=O)NCc2ccc3c(c2)OCO3)c1 | -4 | -2 | 8 | -11 | i | -8 | -4 | /
CSc1ccc(/C=N/Nc2nc(C)cc(C)n2)cc1 | 0 | -1 | 13 | 0 | i | 35 | -34 | -16
CCNc1nnc(CSc2nc3ccccc3s2)s1 | 3 | 0 | -3 | -7 | i | -4 | -13 | -43
COc1ccc(OC)c(-n2c(SCC(C)=O)nnc2-c2cccc(S(=O)(=O)N(C)C)c2)c1 | / | / | -6 | 2 | i | 5 | / | -41
C=CCn1c(=O)c2ccccc2n2c(SCC(=O)Nc3cc(C)on3)nnc12 | 1 | 2 | -7 | 1 | i | -13 | 15 | -100
Cn1cnc([N+](=O)[O-])c1Sc1nnc(-c2cccnc2)n1C | 6 | 6 | -2 | 2 | i | 15 | -15 | 5
Cn1c(SCC(=O)Nc2ccc(F)cc2)nc2c([nH]c3ccccc32)c1=O | 2 | 0 | 15 | -2 | i | 6 | -18 | -35
